Assay outcomes deposited in PubChem by several laboratories.
Bfl-1 A1 inh: inhibitors of the anti-apoptotic protein A1, read as caspase activation. MEF A1-2A-BIM cells, Caspase-Glo 3/7 luminescence, 3 h; percent of clofoctol response, vehicle zero. caspase activation, % (concentration not given with the values). 330,000 tested, 0.066% active. AID 2462;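 active = over half of replicate activation scores above 10%, or exactly half above 10 with the replicate mean above 10; inconclusive = replicate mean below 10 yet half the replicates above 10; inactive = over half of replicates below 10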;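 also: wells of about 30 µL received 50 nL stock; many hits fall short of the cut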
LANA-H2B inh: blocks KSHV LANA binding to histone H2A/H2B; Q9QR71; cell-free LANA-H2A/H2B peptide, fluorescence polarization; inhibition, % (concentration not given with the values); 320,000 tested, 0.6% active; in the data active = inhibition mostly above about 10%, no sharp cut-off; inactive = mostly below about 6.7%;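 also: stock transfer was 7.5 nL into about 10 µL; 0% = median of vehicle wells and 100% = median of positive control wells; one replicate is shown; the record names a cut of 25% in any replicate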
UCH37 DUB inh: blocks the human deubiquitinase UCH37; purified proteasome/UCH37, Ub-AMC cleavage fluorescence; inhibition, % (test concentration not listed); 330,000 tested, 0.33% active;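 active = mean of two replicates above 20%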;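 also: 0% = compound-free wells with enzyme and 100% = wells lacking proteasome; stock transfer was 100 nL into about 20 µL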
Target sequence (Q9Y5K5 whole entry, looked up): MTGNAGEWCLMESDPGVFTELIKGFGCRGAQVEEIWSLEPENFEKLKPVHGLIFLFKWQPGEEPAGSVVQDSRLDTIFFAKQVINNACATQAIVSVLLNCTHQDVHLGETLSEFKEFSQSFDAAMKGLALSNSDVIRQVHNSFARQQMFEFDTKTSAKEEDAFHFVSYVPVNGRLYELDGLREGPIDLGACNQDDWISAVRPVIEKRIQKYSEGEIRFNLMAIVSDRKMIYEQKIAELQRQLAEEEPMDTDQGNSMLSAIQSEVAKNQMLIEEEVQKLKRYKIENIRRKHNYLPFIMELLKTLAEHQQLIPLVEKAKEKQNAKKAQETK
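Signal – fluorescence, ex 355 nm, em 460 nm · System – Proteasome-bound UCH37 · Input – 0.15 nM proteasome as dispensed · Timing – 30 min preincubation with enzyme, 25 min cleavage at room temperature · Read-out basis – percent inhibition of cleavage signal versus uninhibited and no-proteasome wells · Medium – Tris-HCl pH 7.4 with ATP-MgCl2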
Beta2AR agonist: agonists of human beta-2 adrenergic receptor inducing internalization; Am2.2-beta2AR cells, FAP receptor internalization, flow cytometry; reference of the scale not given here; 340,000 tested, 0.43% active; AID 504454; P07550; response, % (concentration not given with the values);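 active = response above a set limit, near 3 SD of response in nonfluorescent compounds, cut at about 42% in these data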;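 also: stock transfer was 100 nL into about 11 µL; a reference agonist was the positive control; negative values mostly stem from fluorescent compounds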
Target sequence (P07550 whole entry, looked up): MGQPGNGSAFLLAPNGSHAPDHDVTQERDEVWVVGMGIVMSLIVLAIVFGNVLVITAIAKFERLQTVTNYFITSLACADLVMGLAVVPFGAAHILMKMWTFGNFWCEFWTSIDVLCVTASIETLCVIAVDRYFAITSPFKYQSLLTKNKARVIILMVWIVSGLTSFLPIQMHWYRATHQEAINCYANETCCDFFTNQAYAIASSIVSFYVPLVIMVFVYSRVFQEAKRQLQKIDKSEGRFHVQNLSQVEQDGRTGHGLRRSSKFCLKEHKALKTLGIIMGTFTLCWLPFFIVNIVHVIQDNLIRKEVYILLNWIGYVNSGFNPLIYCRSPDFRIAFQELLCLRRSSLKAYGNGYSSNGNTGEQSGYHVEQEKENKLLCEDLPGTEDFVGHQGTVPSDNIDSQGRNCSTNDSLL
Calb FLC: C. albicans growth modulation with fluconazole | C. albicans CaCi-2 (fluconazole-resistant clinical isolate) + fluconazole, Alamar Blue growth, 48 h | growth inhibition, % (test concentration not listed) | 300,000 tested, 0.57% active | AID 1979;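 active = most replicates above 75%; inconclusive = exactly half above 75%; inactive = most below 75%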;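 also: all wells also contain fluconazole at 8 µg/ml as a sub-toxic cotreatment; 0% = median of DMSO wells and 100% = median of geldanamycin control wells; wells of about 8 µL received 7.5 nL stock; the first replicate is given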
Beta cell apopt: blocks beta cell apoptosis | 300,000 tested, 0.8% active | AID 435005 | INS-1E cytokine-induced death, ATP luminescence, 48 h; percent of positive-control rescue, neutral wells zero | protection from apoptosis, % (concentration not given with the values);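 active = all replicates at 75% or more, or half of them and the mean; inconclusive = half reach 75% but not the mean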;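 also: 0% = cytokine-treated negative control wells and 100% = positive control rescue; higher means more ATP so stronger rescue from cytokine killing; wells of about 40 µL received 100 nL stock; the first replicate is given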
RanGTP-Imp inh: inhibitors of RanGTP-importin-beta interaction, primary screen, biochemical, FRET, CFP-Ran, YFP-importin-beta, homogeneous | cell-free CFP-Ran/YFP-importin-beta FRET ratio | inhibition, % (concentration not given with the values) | 300,000 tested, 1.1% active | AID 2216;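 active = most replicates above 15%; inconclusive = exactly half above 15%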;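 also: 0% = DMSO wells and 100% = Ran loaded with GDP instead of GTP; wells of about 40 µL received 100 nL stock; the first replicate is given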
T cruzi repl: blocks replication of Trypanosoma cruzi. 300,000 tested, 1.4% active. inhibition, % (test concentration not listed). T. cruzi beta-gal in NIH3T3, luminescence, 90 h. AID 1885;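 active = mean inhibition across valid replicates above about 55%, limit read from the data; inconclusive = mean below that limit but half or more replicates reach it; inactive = mean below it, under half of replicates reach it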;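 also: signal also drops with host cell toxicity which is not excluded here; 0% = plate median of DMSO wells and 100% = zero luminescence signal; higher percent means less beta-gal luminescence so fewer parasites; stock transfer was 50 nL into about 50 µL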
* hit, by the source's call; ? = inconclusive; / = not tested or not shown.

Order of results: Bfl-1 A1 inh, LANA-H2B inh, UCH37 DUB inh, Beta2AR agonist, Calb FLC, Beta cell apopt, RanGTP-Imp inh, T cruzi repl
> CCOc1ccc(NC(=O)c2ccc(F)c(S(=O)(=O)N3CCN(c4ccccn4)CC3)c2)cc1
  -0.8, -2.8, 2.4, 3, 16, /, 2.7, 6
> C[C@H](O)[C@@]1(O)CC[C@H]2[C@@H]3CC[C@@H]4C[C@H](O)CC[C@]4(C)[C@H]3CC[C@@]21C
  0.2, 8.1, 5.2, 5, -7, 0, -2.9, -16
> Cc1ccccc1N(C(=O)c1snc(C(N)=O)c1N)C(C(=O)NC1CCCCC1)c1ccc(O)cc1 (stereo unspecified)
  -0.3, -6.6, -57, -4, 4, -2, 4.3, -7
> Cc1cccc(NC(=O)CCCN2C(=S)NC(C)(C)CC2C)c1C (stereo unspecified)
  -0.1, 0.3, 0.2, 4, -8, -5, 1.1, -18
> CCOC(=O)C(C)CC(C)C(=O)N1CCOCCOCCN(C(=O)C(C)CC(C)C(=O)OCC)CCOCC1 (stereo unspecified)
  0.3, -1.9, 0.7, 1, -1, 6, 3.5, 10
> COc1cccc(OC)c1CNC(=O)C1CCC(=O)N(CC2CCCCC2)C1 (stereo unspecified)
  0.9, -4.1, 7.0, -3, -22, 1, 2.4, 21
> COc1ccc([N+](=O)[O-])cc1NC(=O)CCC(=O)c1cccs1
  -0.2, -2.7, /, -2, -4, 6, -1.5, 4
> CN1CCN(C(=O)c2ccc(Cl)c(S(=O)(=O)N3CCCCC3)c2)CC1
  0.1, 0.0, 1.3, -1, 2, -1, -2.7, -8
> COc1ccc(/C=N/NC(=O)c2cc(-c3cccn3C)n[nH]2)cc1OC
  -0.3, -2.3, /, 10, -31, 17, -1.3, -12
> Cc1c(C(=O)N2CCOCC2)sc(NC(=O)CCl)c1C#N
  -0.3, 4.2, 7.9, -1, 1, -7, 2.1, -4
> O=C(O)CC(C(=O)Nc1cccc(C(F)(F)F)c1)C1CCCO1 (stereo unspecified)
  -1.0, 4.4, 3.8, 7, -15, -2, 6.3, -11
> NC(=O)CC(NC(=O)Cc1cccc2ccccc12)c1ccc(N2CCC(Br)CC2)c([N+](=O)[O-])c1 (stereo unspecified)
  -0.1, 4.0, 0.4, 1, 4, -9, 0.5, -3
> O=c1sc2ccccc2n1Cc1ccccc1
  0.2, 3.6, -0.5, 3, ?, -2, 0.3, -12
> Cc1cc(C)nc(Sc2ccc(/C=C(\C#N)C(N)=O)o2)n1
  1.5, -2.2, 3.8, -2, -7, -2, 5.0, -11
> Cc1ccnc(NC(=O)CCNC(=O)c2ccccc2Cl)c1
  0.2, -2.7, -0.3, -2, -2, /, 0.9, 2
> Cc1cccc(NC(=O)NNC(=O)COc2ccc([N+](=O)[O-])cc2)c1C
  -0.6, 1.4, 5.1, -4, 2, -2, -2.2, 1
> CCN(CC)S(=O)(=O)c1ccc(/C=C/C(=O)OCC(=O)NCc2ccc3c(c2)OCO3)cc1
  0.0, 0.4, -0.8, 0, -5, -3, -1.1, -10
> CC(=O)c1ccc(NC(=O)COC(=O)C2C3CC4OC(=O)C2C4C3)cc1 (stereo unspecified)
  2.9, 0.4, 4.2, -3, -1, -6, 2.2, 0
> COc1ccc(CNC(=O)CN2C(=O)COc3ccc(S(=O)(=O)NC4CCCC4)cc32)cc1
  -0.2, -0.1, 1.9, 3, -2, 1, 1.2, 11
> Cn1c(C(=O)NC2CCCCC2)cc2c(=O)n(C)c3ccccc3c21
  -0.3, 1.5, -9.6, 8, 4, -8, -3.8, 5
> c1ccc2c(c1)c1ccccc1n2CN1CCOCC1
  0.2, 5.8, 1.0, 5, 0, -5, 1.6, -21
> COC(=O)c1sccc1NC(=O)Nc1ccc(F)cc1F
  1.3, -4.0, 0.6, 2, 8, 2, 1.9, -11
> Cc1ccc(-n2nc(-c3ccc(OC(F)(F)F)cc3)cc2N)cc1C
  1.4, 4.0, 3.4, 6, 8, /, -1.7, -26
> CC(C)(C)[C@H]1C=C(C(=O)NCc2nc3ccccc3[nH]2)O[C@@H](OCc2ccc(CO)cc2)C1
  -0.6, -13, 5.0, 8, 6, 0, 6.6, 4
> O=S(=O)(c1ccc(Cl)s1)N1CCC2(CC1)OCCO2
  1.3, -1.7, /, 1, 0, -2, ?, -3
> O=[N+]([O-])c1ccc(-c2csc(NN=C3CCCC3)n2)cc1
  -1.2, -1.9, 2.5, -14, -61, 9, /, 52
> Cn1ncc(Cl)c1C(=O)Nc1ccc(Cl)cn1
  -2.6, -2.2, 2.7, -3, -20, 2, 1.4, 3
> COc1ccccc1CNC(=O)c1cccs1
  -0.9, -0.4, 1.6, -5, -13, -2, 8.4, 20
> Cc1nc(SCC(=O)c2cc3ccccc3oc2=O)c(C#N)c(-c2cccs2)c1C(=O)Nc1ccccc1
  0.0, 4.6, -45, -4, -6, 14, 3.6, 24
> Cc1ccc(-c2cc([C@H]3[C@H]4C=CC[C@@H](C)[C@@H]4C(=O)N3Cc3ccccc3)ccc2F)cc1
  1.1, -2.5, -1.3, 10, -13, -3, -2.2, 51
> COCCOc1ccc(C(F)(F)F)cc1NC(=O)COC(=O)c1cc[n+]([O-])cc1
  0.0, -0.1, 0.8, -3, 9, -3, 2.1, -11
> CC(=O)c1cccc(NC(=O)CN2C(=O)NC3(CCCCCCC3)C2=O)c1
  0.5, 2.1, 4.5, 9, 1, -3, -2.4, 14
> Cc1ccc(/C=N/N2CCN(c3ccncc3S(=O)(=O)N3CCCCC3)CC2)cc1
  -0.2, -6.6, /, -2, -11, -6, 1.1, 14
> COCC1CCCCN1C(=O)c1ccc(OC)c(OC2CCN(C(C)C)CC2)c1 (stereo unspecified)
  0.7, 1.6, 4.2, 2, -2, -7, -1.7, 0
> CCOC(=O)c1cc(C)sc1/N=C/C1C(=O)CCCC1=O
  -0.6, 3.1, /, -2, 8, -7, -1.3, -28
> CCCCC(CC(O)COCCC)C(=O)NN (stereo unspecified)
  0.1, -3.4, 4.4, -5, 8, 1, 1.2, 5
> CC(=O)N1CCN(C(=O)c2cccc(S(=O)(=O)N3CCN(c4ccccc4)CC3)c2)CC1
  0.4, -2.3, -1.7, -1, /, 1, /, /
> CCOc1ccccc1NC(=O)c1cccc2c1C(=O)N(C1CCCCC1)C2
  -1.3, 3.1, 1.5, -1, -6, 4, 3.7, 22
> NC(=O)c1ccc(NC(=O)COC(=O)c2ccc(Br)o2)cc1
  -0.1, -2.2, 0.6, 6, /, -4, /, /
> FC(F)(F)Oc1ccc(NC(=S)Nc2ccccc2N2CCOCC2)cc1
  0.0, 0.0, 3.0, 0, -14, 0, 0.6, -19
> CC(C)N(C(=NCc1ccccc1)NC(=O)c1ccccc1)C(C)C
  -0.2, -4.5, 1.7, -6, 2, -3, 2.2, -5
> CCCCC#Cc1ccccc1CC(=O)Nc1ccccc1
  0.6, -2.9, -0.3, -3, -25, 0, 3.5, 4
> COc1ccccc1NCC(=O)N/N=C(\C)c1cccs1
  0.2, 0.3, /, -2, -4, -1, 4.8, 6
> Cn1c(SCC(=O)Nc2ccc(N3CCOCC3)c(Cl)c2)nnc1-c1ccccc1
  1.0, 40*, 0.6, /, -16, 0, -6.7, 5
> CC1(C)Oc2ccc(C(=O)Nc3ccccc3)cc2N(CC#N)C1=O
  -0.2, -3.5, -0.8, -6, 2, /, 3.2, -1
> CCc1cccc(CC)c1NC(=O)Cn1c(-c2ccccc2Cl)nc2ccccc21
  0.5, 3.1, 2.6, -15, -18, -4, -0.6, 6
> O=C(CNc1ccccc1)N/N=C/c1c[nH]c2ccccc12
  0.0, -11, /, 0, -4, -3, -0.5, -4
> Cc1cc(C)c(C)c(S(=O)(=O)N2CCN(CC(=O)Nc3sccc3C#N)CC2)c1C
  0.0, -0.1, 4.7, 5, -3, 0, -3.8, 26
> C[C@@]12CCC3[C@@](CCC4[C@@]3(C)CCC[C@@]4(C)C(=O)NCc3ccccc3)(CC1=O)C2 (stereo partly specified)
  2.0, -2.2, 1.4, -2, /, -6, /, /
> c1ccc(CSc2ncn[nH]2)nc1
  -0.6, 4.0, 3.9, -2, -4, -3, ?, -2
> FC(F)(F)c1nnc2ccc(NCn3nnc4ccccc43)nn12
  0.2, 2.7, 1.6, 3, /, 5, 6.3, -3
> Cn1c(Cc2ccccc2)nnc1SCC(=O)Nc1ccc2c(c1)OCO2
  0.9, 0.7, 1.1, 10, 3, 2, 2.9, 2
> CC(O)[C@H]1CNC(=O)C(=O)N1CCc1cccc(F)c1 (stereo partly specified)
  -0.9, 3.1, 0.8, 1, 5, -2, -4.0, -5
> Nc1c(Cl)c(Cl)nc(C(=O)OCC(=O)NC2CCCCC2)c1Cl
  0.0, -0.5, -0.4, 6, 7, -5, -1.4, -11
> COc1ccc(CCNC(=S)c2ccccc2)cc1OC
  -0.1, 1.6, -0.2, -1, -15, 7, 2.9, -16
> CCN1C(=O)c2cccc3c(S(=O)(=O)N4CCCC4C(=O)O)ccc1c23 (stereo unspecified)
  0.0, 5.5, -109, -4, -5, 0, 7.2, -15
> CN1CCN(C(=O)C2=C[C@@H](C3CCCCC3)C[C@@H](OCc3ccc(CO)cc3)O2)CC1
  0.5, 3.7, 5.8, -1, -18, -3, -0.9, -4
> O=C(Oc1ccc(-c2nccc(-c3ccccn3)n2)cc1)c1cccc(C(F)(F)F)c1
  0.1, /, 4.5, -2, -20, 2, 3.4, -4
> O=C(CN1C(=O)NC2(CCc3ccccc32)C1=O)c1ccc(Cl)cc1 (stereo unspecified)
  0.7, 2.6, 0.8, -9, /, -3, 3.0, 1
> CC1=CC(=O)C(C(C)C)=CC1=NC(=O)c1ccc(C)cc1
  -0.4, 1.1, 1.7, 21, -2, -16, 4.5, -27
> Clc1ncccc1-c1nnn(-c2ccccc2Br)n1
  0.4, -1.3, 4.0, -7, -3, 1, -2.5, -21
